Compound activity: PubChem, National Center for Advancing Translational Sciences (NCATS)
Vaccinia Venus – qHTS for Stage-Specific Inhibitors of Vaccinia Orthopoxvirus: Venus Reporter Primary qHTS; Vaccinia virus Venus reporter expression, fluorescence; Potency, µM (titrated, usually from 36.5 µM), for inactives: at the highest dose activity change, negative = inhibition, most hits filed as inhibitors; 0.46% of 330,000 active; AID 720580, 2013; active means well fitted inhibition curve with a large enough effect; inconclusive means small, poorly fitted or top-dose-only effect; inactive means no such curve, though single readings can be large or run the other way; tested in A549 cells; note: nearly all actives have a fitted effect of over 30% in size; inactives centre near -10
Vaccinia mCherry – qHTS for Stage-Specific Inhibitors of Vaccinia Orthopoxvirus: mCherry Reporter Primary qHTS; Potency, µM (highest dose often 36.5 µM), for inactives: at the highest dose activity change, negative = inhibition, actives largely listed as inhibitors; 0.63% of 310,000 active; AID 720579, 2013; Vaccinia virus mCherry reporter infection, fluorescence; about a quarter of the inactives have no number; active = well fitted inhibition curve with a large enough effect; inconclusive = small, poorly fitted or top-dose-only effect; inactive = no such curve, though single readings can be large or run the other way; tested in A549 cells; note: nearly all actives have a fitted effect of over 35% in size; inactives centre near -10
* = called active by the depositor; i = inactive; u = inconclusive; x = no result given; & = joins results of further samples; [ ] = another dose, or the depositor's remark. % is set by controls: 0 for no effect and ±100 for the full control effect; potency is the fitted concentration of half-maximal effect.

SMILES | Vaccinia Venus | Vaccinia mCherry
Cc1nnc(SCC(=O)Nc2cc(S(=O)(=O)N3CCCC3)ccc2Cl)s1 | -6% | i
CC(C)Oc1cccc(-c2cc(C(=O)NC(=S)N(C)c3ccccc3C(=O)O)c3ccccc3n2)c1 | -14% | -23%
O=C1c2ccccc2C(=O)C1c1cc2ccccc2cn1 | -8% | -13%
COc1ccc(N2CCN(S(=O)(=O)CCNC(=O)C(C)Oc3ccccc3)CC2)cc1 (stereo unspecified) | -20% | -4%
Cc1ccc(C(C)C)c(O)c1 | 3% | 1%
O=C(Nc1cc(-c2nc3cc(Cl)ccc3o2)ccc1Cl)c1cccc2ccccc12 | 6% | -5%
Cc1ccc(S(=O)(=O)Nc2ccc3c(c2)CC(=O)N([C@H](C)CO)C[C@H](C)[C@H](CN(C)Cc2ccc4c(c2)OCO4)O3)cc1 | u | u
CCOC(=O)N1CCN(Cc2nc3cc(NC(=O)c4ccc([N+](=O)[O-])cc4)ccc3n2C(C)C)CC1 | u | u
CN(CC(=O)Nc1cccc2c1CCCC2)S(=O)(=O)c1ccc(Br)cc1 | -6% | i
COC(=O)C1=C(C)NC(=O)NC1c1cccc(OC)c1OCc1ccccc1 (stereo unspecified) | -4% | x
O=C(NC1CCCCCC1)c1cc2n(n1)C(C(F)(F)F)CC(c1ccco1)N2 (stereo unspecified) | -12% | -19%
O=C(Cn1cc(C(=O)C(F)(F)F)c2cc(Br)ccc21)N1CCOCC1 | -16% | i
O=S(NCc1ccccc1)C12CC3CC(CC(C3)C1)C2 (stereo unspecified) | -11% | u
CCOCCCn1c(SCC(=O)NCCCOC)nc2c(sc3ccccc32)c1=O | -2% | 1%
Cc1cc(N(C)C)ccc1N=Nc1ccc2ncccc2c1 | 7% | i
COc1cc(NC(=S)NCCCN2CCOCC2)c(OC)cc1Cl | -5% | i
O=P(O)(O)c1cc(-c2ccccc2)oc1-c1ccccc1 | -5% | i
Cc1cn(C2CCC(CO)O2)c(=O)[nH]c1=O (stereo unspecified) | -10% | -15%
CCN(CC)c1ccc(C(=O)OCC(=O)N(C)Cc2ccccc2)cc1 | -14% | -7%
CCc1ccccc1NC(=O)CSC1=Nc2ccccc2C2=NC(Cc3ccccc3)C(=O)N12 (stereo unspecified) | -12% | -17%
CCNC(=O)Cn1nc(C)n2c(cc3c(OC)cccc32)c1=O | -9% | -8%
O=C(CN1C(=O)NC2(CCCCCC2)C1=O)NC1CC1 | -3% | -8%
CCS(=O)(=O)N1CCC(C(=O)N2CCC3(CC2)OCCO3)CC1 | 7% | -7%
Cc1nc2ccccc2c2c1C(=O)N(c1cccc(C(=O)O)c1)C2=O | 2% | -28%
COc1cc(/C=N/Nc2ccc([N+](=O)[O-])cn2)cc(OC)c1O | -17% | -25%

The final 6 records of the section above come first, to join the parts.
SMILES | Vaccinia Venus | Vaccinia mCherry
CCc1ccccc1NC(=O)CSC1=Nc2ccccc2C2=NC(Cc3ccccc3)C(=O)N12 (stereo unspecified) | -12% | -17%
CCNC(=O)Cn1nc(C)n2c(cc3c(OC)cccc32)c1=O | -9% | -8%
O=C(CN1C(=O)NC2(CCCCCC2)C1=O)NC1CC1 | -3% | -8%
CCS(=O)(=O)N1CCC(C(=O)N2CCC3(CC2)OCCO3)CC1 | 7% | -7%
Cc1nc2ccccc2c2c1C(=O)N(c1cccc(C(=O)O)c1)C2=O | 2% | -28%
COc1cc(/C=N/Nc2ccc([N+](=O)[O-])cn2)cc(OC)c1O | -17% | -25%
COc1ccc(C2CC(c3ccccc3Cl)Nc3ncnn32)cc1OC (stereo unspecified) | -18% | i
Cc1ccc(C(=O)NCC(C)NC(=O)c2ccc(C)c([N+](=O)[O-])c2)cc1[N+](=O)[O-] (stereo unspecified) | -16% | u
N=C1c2ccccc2CN1NC(=O)c1cccc(S(=O)(=O)N2CCCCC2)c1 | -7% | i
COC(=O)C1=CO[C@@H](C)[C@@H]2CN3CC[C@@]4(C(=O)Nc5ccccc54)[C@@H]3C[C@H]12 | -10% | -14%
Cc1ccc(NC(=O)c2ccc3c(c2)OCCO3)cc1 | -20% | x
CCc1ccc(NC(=O)Cn2c(=O)c(CNc3ccccc3)cc3cc(OC)c(OC)cc32)cc1 | -1% | -3%
CCCCCc1nc2c(c(=O)c3ccccc3n2C)c(=O)n1C1CCCCCC1 | -12% | -6%
C/C(=N\O)c1ncc(C(F)(F)F)cc1Cl | -13% | -13%
CNC(=O)Oc1ccccc1OC(C)C | -19%&-8% | -1%&-10%
O=C(CCNC(=O)c1ccccc1Cl)NCc1ccncc1 | -13% | i
Cc1cc(C)nc(SC2CCCCC2NS(=O)(=O)c2ccc(Cl)cc2)n1 (stereo unspecified) | -12% | i
O=C(NC1CCCCCCC1)NC1CCCCC1 | u | -17%
Cc1nn(CC(=O)NCCc2ccccc2)c(=O)c2nn(-c3ccccc3)c(C)c12 | -19% | -16%
O=C(CSc1nnnn1-c1ccccc1)Nc1ncc(Cc2cccc(Cl)c2Cl)s1 | -2% | -15%
Cc1nccn1-c1c2c(c(C#N)c3nc4ccccc4n13)CCC2 | 0% | 6%
Cc1ccc(Nc2nc(CSc3nnnn3-c3ccccc3)cc(=O)[nH]2)cc1 | -26% | u
COc1ccccc1NC(=O)CN1CCN(CC(=O)Nc2ccccc2Cl)CC1 | 0% | -1%
COCCCn1c(=N)c(S(=O)(=O)c2ccccc2)cc2c(=O)n3cccc(C)c3nc21 | -3% | -8%
O=C(Cn1c(=O)c2cccn2c2ccc(F)cc21)N1CCN(c2ccccc2)CC1 | 2% | -2%
CCOC(=O)C1C(=O)NC(c2ccccc2)=NC1c1ccc(F)cc1 (stereo unspecified) | -10% | i
O=C(Nc1noc2ccccc12)c1cccc(F)c1 | 2% | -2%
Nc1nc2ncn(COCCO)c2c(=O)[nH]1 | 2% | 3%
COc1ccc(S(=O)(=O)N2CCC(C(=O)Nc3cc(C(F)(F)F)ccc3Cl)CC2)cc1 | -29% | u
C/C(=N\NC(=O)C(=O)Nc1c(C)n(C)n(-c2ccccc2)c1=O)c1ccncc1 | -5% | i
CCc1nc2ccccc2c(C(=O)OCC(=O)NCc2ccc3c(c2)OCO3)c1C | -15% | -13%

One compound at a time, as listed above.
Cc1nn(CC(=O)NCCc2ccccc2)c(=O)c2nn(-c3ccccc3)c(C)c12 reads Vaccinia Venus: -19%; Vaccinia mCherry: -16%
CCOC(=O)C1C(=O)NC(c2ccccc2)=NC1c1ccc(F)cc1 (stereo unspecified) reads Vaccinia Venus: -10%; Vaccinia mCherry: i

Next structures follow:
SMILES | Vaccinia Venus | Vaccinia mCherry
CCN(CC(=O)Nc1c(F)cccc1F)C(=O)CCC(=O)c1ccc(F)cc1 | 0% | -15%
COc1ccc(Nc2c3c(nc4ccccc24)CCCC3)cc1OC | -8% | u
Cc1ccc2oc(=O)c(S(=O)(=O)c3ccc(C(C)(C)C)cc3)cc2c1 | 8% | -6%
CN(Cc1ccc(Cl)cc1)C(c1cc2ccccc2o1)c1nnnn1C(C)(C)C (stereo unspecified) | -17% | -12%
O=C(CN(Cc1ccccc1)C(=O)CCC(=O)Nc1ccccn1)NCc1ccc(F)cc1 | -11% | i
COc1ccc(N(CN2C(=O)c3ccccc3C2=O)C(=O)C(C)C)cc1 | -1% | -6%
COc1ccc(C2/C(=C(/O)c3ccccc3)C(=O)C(=O)N2c2ccccn2)cc1OC (stereo unspecified) | -10% | -6%
O=C(COC(=O)CNC(=O)C1CCCCC1)Nc1ccc(F)c([N+](=O)[O-])c1 | -8% | -7%
C=CCNC(=O)C1=NN(c2c(F)c(F)cc(F)c2F)C(=O)CC1 | 8% | -7%
CCOC(=O)N1CCC(NC(=O)C2CCN(Cc3nc(-c4ccc(CC)cc4)oc3C)CC2)CC1 | -12% | i
COc1cc(Cl)c(C)cc1NC(=O)CSc1cc(-c2ccccc2)nc(C)n1 | -11% | -14%
Cc1ccc(SCCC(=O)Nc2c(C)n(C)n(-c3ccccc3)c2=O)cc1 | -13% | i
Cc1ccc2nc(/C(C#N)=C/c3cccc(Br)c3)[nH]c2c1 | -11% | -5%
c1ccc(-n2ncc3c(NC4CCCCCC4)ncnc32)cc1 | -15% | 3%
S=C(NCC1CCCO1)N1CCN(c2ccccc2)CC1 (stereo unspecified) | -6% | 2%
Cc1ccc(Cl)cc1NS(=O)(=O)c1ccc2oc(=O)ccc2c1 | 0% | -7%
O=C(NCc1ccccc1)C(c1ccco1)N(C(=O)c1csnn1)c1ccccc1F (stereo unspecified) | -5% | -9%
O=C(O)CCCCCNC(=O)C(=O)C1C(=O)Nc2ccccc21 (stereo unspecified) | -3% | -18%
O=C(CCn1cnc2onc(-c3ccc(F)cc3)c2c1=O)Nc1ccc(F)c(Cl)c1 | -25% | -27%
COc1ccc(O)cc1 | 21% | 27%
CSc1ccccc1OCc1cc(C(=O)NCC(C)(C)N2CCOCC2)no1 | -15% | i
COc1ccc(C(=O)N2CCC(C(=O)N3CCN(Cc4ccccc4)CC3)CC2)cc1 | -12% | i
C[C@H](O)[C@@H]1CN2CCc3c([nH]c4ccc(-c5ccc6c(c5)OCO6)cc34)[C@@H]2C[C@@H]1N(C)C(=O)Nc1cc(Cl)cc(Cl)c1 | u | u
CCc1ccc(-n2c(SC(CC)C(=O)N(CC)CC)nc3n[nH]c(C)c3c2=N)cc1 (stereo unspecified) | u | u
O=C(c1cc2c(s1)-c1ccccc1OC2)N1CCC2(CC1)OCCO2 | -27% | u

Rewritten with two lines to a compound: part of the list above.
Each structure is followed by: Vaccinia Venus | Vaccinia mCherry
- Cc1ccc2oc(=O)c(S(=O)(=O)c3ccc(C(C)(C)C)cc3)cc2c1
    8% | -6%
- Cc1ccc(Cl)cc1NS(=O)(=O)c1ccc2oc(=O)ccc2c1
    0% | -7%
- O=C(CCn1cnc2onc(-c3ccc(F)cc3)c2c1=O)Nc1ccc(F)c(Cl)c1
    -25% | -27%

Further records:
SMILES | Vaccinia Venus | Vaccinia mCherry
COC(=O)Cn1c(CCS(=O)(=O)c2ccc(Cl)cc2)nc2ccccc21 | -21% | x
CCc1nc2c(OCC3CCCCC3)cccn2c1N(C=O)Cc1ccc(OC)cc1 | 2% | 6%
CCOc1ccc(CNC(=O)c2cnc3sc(N(CC)CC)nn3c2=O)cc1OC | -6% | -6%
Cc1ccc(-c2nc(S(=O)(=O)c3ccccc3)c(SCC(=O)NC3CCCCC3)o2)cc1 | u | u
COc1cc(NC(=O)CCc2nnc3ccc(N4CCCC4)nn23)cc(OC)c1OC | -3% | -25%
CCN(CC)C(=O)OCc1c(-c2ccccc2)ncc2ccccc12 | -21% | i
CC(C)(C)OC(=O)CNC(=O)c1[nH]cnc1C(=O)NC(c1ccccc1)c1ccccc1 | u | u
CCOC(=O)c1ccc(NC2=CC(c3ccc(F)cc3)N(c3ccc(C(=O)OCC)cc3)C2=O)cc1 (stereo unspecified) | 5% | 10%
CCNC(=S)N(CCc1c(C)[nH]c2ccc(Cl)cc12)Cc1ccco1 | -16% | u
CSCCC(NS(=O)(=O)c1ccc(Cl)cc1)C(=O)OCC(=O)NC1CCCCC1 (stereo unspecified) | -15% | -7%
O=C(CSc1nc2ccccc2nc1N1CCCC1)Nc1ccc(F)cc1 | -10% | i
COCCn1ccc2c(OCC(=O)NCc3ccccc3)cccc2c1=O | -7% | -7%
CCc1ccc2nc(N3CCC(C(=O)NCCC(C)C)CC3)sc2c1 | -26% | -20%
c1csc(-c2nc(NCC3CCCO3)c3ccccc3n2)c1 (stereo unspecified) | -14%&2% | 2%
CS(=O)(=O)N1CCc2cc(C(=O)Nc3ccc(Cl)cc3)ccc21 | -20% | i
O=C(Nc1cc2c3c(c1)CC(=O)N3CCC2)c1ccc(Br)cc1 | -18% | -23%
CCCCN(CC)C(=O)CN1C(=O)c2ccccc2C1=O | 11% | x
CCN1CCN(CCNC(=O)CCCn2nc(C)c3c(C)n(-c4ccc(C)cc4)nc3c2=O)CC1 | u | u
CCOC(=O)CN(C(=O)COC(=O)C1(c2ccccc2)CC1)c1ccc(F)cc1 | -17% | -12%
CC(=O)c1sc(Nc2nc3cc4c(cc3s2)OCO4)nc1C | -4% | -7%
COc1ccc(CN(C)C(=O)CNC(=O)c2ccc3ccccc3c2)c(OC)c1 | -16% | i
COc1ccc2[nH]c(C(=O)NCCCn3ccnc3)cc2c1 | 2% | -10%
COc1ccc(OC)c(-c2csc(NC(=O)C3COc4ccccc4O3)n2)c1 (stereo unspecified) | -19% | -27%
CN(Cc1nc2ccccc2n1C)S(=O)(=O)c1ccc(Cl)cc1 | u | -11%
CCCCNC(=O)CC1N=C2c3ccccc3N=C(SCC(=O)Nc3ccccc3C)N2C1=O (stereo unspecified) | 12% | 5%
(next part)
SMILES | Vaccinia Venus | Vaccinia mCherry
CCOC(=O)c1ccc(NC(=O)CSc2nc(-c3cccs3)cc(C(F)(F)F)c2C#N)cc1 | -11%[7.34 µM] | -8%[7.34 µM]
Cc1ccnc(NS(=O)(=O)c2ccc(N3C(=O)c4ccccc4C3=O)cc2)n1 | -14% | -11%
CC(=O)NC(CC(=O)OCC(=O)Nc1cc(S(=O)(=O)N2CCCCC2)ccc1C)c1ccccc1 (stereo unspecified) | -16% | -24%
O=C(O)c1c2ccccc2cc2ccccc12 | -4% | -4%
COc1cc(/C=N/Nc2cccc(C)c2)ccc1OC(=O)c1ccco1 | -10% | -15%
CCCSc1nc2c(cnn2-c2ccccc2)c(=O)[nH]1 | -12% | i
O=[N+]([O-])c1cc(-c2nc(-c3ccncc3)no2)ccc1Cl | -28% | -14%
CCCCOC(=O)Cn1c(=N)n(CCN2CCOCC2)c2ccccc21 | -8% | -14%
COc1ccc(CCN2CC(C(=O)Nc3ccc(S(C)(=O)=O)cc3)CC2=O)cc1OC (stereo unspecified) | -10% | -22%
